# High-throughput results deposited in PubChem by several laboratories.
# PABP FP inh: PABP poly(A) RNA binding inhibitors, primary screen, biochemical, fluorescence polarization, uHTS; Polyadenylate-binding protein 1 (Homo sapiens), P11940; inhibition, % at 35 µM; 290,000 compounds, 1% hits;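 active = 50% or more with normal probe brightness, or confirmed in later tests; inconclusive = above 50% with abnormal brightness, or retests that disagree; inactive = below 50% or failed in later tests; about a fifth of its hits are not listed in these tables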;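 note: calls also rest on retests at 20 µM and on dose response follow-up; controls were probe without protein and protein plus probe with vehicle; some compounds called inactive have numbers as strong as hits; many hits fall short of the cut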
# Target sequence (P11940 whole entry, looked up): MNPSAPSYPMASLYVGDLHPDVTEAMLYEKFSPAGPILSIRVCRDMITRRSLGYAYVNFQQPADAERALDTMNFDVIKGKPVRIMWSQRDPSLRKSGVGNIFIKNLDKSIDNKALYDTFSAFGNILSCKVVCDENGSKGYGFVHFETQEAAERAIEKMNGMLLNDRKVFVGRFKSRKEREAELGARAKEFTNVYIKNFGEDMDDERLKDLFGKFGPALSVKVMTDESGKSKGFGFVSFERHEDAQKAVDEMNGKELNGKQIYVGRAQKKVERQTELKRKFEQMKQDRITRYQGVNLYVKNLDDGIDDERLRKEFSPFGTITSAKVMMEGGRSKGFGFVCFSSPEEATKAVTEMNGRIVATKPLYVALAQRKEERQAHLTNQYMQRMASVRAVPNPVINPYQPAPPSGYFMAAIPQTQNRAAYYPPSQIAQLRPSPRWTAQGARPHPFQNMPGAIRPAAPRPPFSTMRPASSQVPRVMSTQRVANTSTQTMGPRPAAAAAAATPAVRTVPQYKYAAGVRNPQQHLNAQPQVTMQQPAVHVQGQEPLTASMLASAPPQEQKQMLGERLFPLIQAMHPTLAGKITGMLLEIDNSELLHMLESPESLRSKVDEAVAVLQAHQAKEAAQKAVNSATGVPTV
# eIF4H FP inh: human eIF4H binding inhibitors, primary screen, translation initiation inhibitor project, biochemical, uHTS, fluorescence polarization; inhibition, % at 35 µM; eIF4H fluorescence polarization binding assay; 290,000 compounds, 0.94% hits; Eukaryotic translation initiation factor 4H (Homo sapiens), Q15056;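 active = 50% or more with normal probe brightness, or confirmed in later tests; inconclusive = above 50% with abnormal brightness, or retests that disagree; inactive = below 50% or failed in later tests; about a fifth of its hits are not listed in these tables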;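 note: calls also rest on retests at 20 µM and on dose response follow-up; 0% = protein and probe with vehicle and 100% = probe without protein; strong numbers were not always called active; many hits fall short of the cut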
# CSC inhib: cancer stem cell viability inhibitors, primary screen, luminescence; cancer stem cell-like cells viability; inhibition, % at 7.5 µM; 300,000 compounds, 1.1% hits;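 active = mean at 75% or more and at least half the replicates too; inconclusive = mean and replicates disagree; tested in HMLE shEcad cells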;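 note: 0% = median of negative and 100% = median of positive control wells; the first replicate is given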
# MT1-MMP act inh: blockers of MT1-MMP proenzyme processing, primary screen, HT1080 RFP-PRO-GFP cells, GFP/RFP fluorescence. GFP/RFP ratio fluorescence, overnight; percent of plate control window, DMSO zero. GFP/RFP ratio change, % at 20 µM. 360,000 compounds, 0.061% hits. AID 651647, 2012;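 active = GFP/RFP ratio change of at least 30% with cell ATP level not reduced by more than half and red fluorescence within 50% of control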; note: strong numbers were not always called active
#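 Assay system: HT1080 cells carrying an RFP-PRO-GFP reporter | Dosing: Single dose of 20 µM compound, 1% DMSO final | Incubation: Cells overnight before dosing, compound overnight, 37 °C, 5% CO2 | Evaluation: GFP/RFP fluorescence ratio | Control set: DMSO and RFP-L50D-GFP cell wells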
# HIV Env fusion: inhibitors of HIV-1 Env-driven cell-cell fusion, primary screen, HeLa-JRFL effector, CEM21 target cells, luciferase | inhibition, % at 12.3 µM | 360,000 compounds, 1.1% hits | AID 651610, 2012;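 active = mean replicate inhibition score of at least 50 and every replicate individually at or above 50; inconclusive = only one of the two criteria met; inactive = mean below 50 and not all replicates reaching 50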;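 note: 0% = plate neutral controls and 100% = maraviroc near 300 nM; one replicate is shown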
# Yeast UUG start: modulators of yeast start codon fidelity, primary screen, whole organism, S. cerevisiae, single point, plate reader. S. cerevisiae UUG-firefly luciferase reporter, luminescence/redox ratio. activity score, % at 18.7 µM. 350,000 compounds, 0.13% hits. AID 602363, 2012;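 active = replicate mean at a twofold rise or more, about +100% in these data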;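 note: firefly luciferase made from a UUG start codon reports start codon fidelity; reporter light over untreated wells divided by growth signal over untreated wells; some hits fall short of that in this replicate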
# Rce1 inh: yeast Rce1p protease inhibitors, primary screen, biochemical, fluorescence, cell-free homogeneous; CAAX prenyl protease 2 (Saccharomyces cerevisiae (strain ATCC 204508 / S288c)), Q03530; yeast membranes, quenched prenylated peptide cleavage fluorescence; calls only; 290,000 compounds, 0.27% hits;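 active = fall in fluorescence gain of 50% or more versus controls, with final raw signal at or below 3038400; inconclusive = same 50% fall but final raw signal above 3038400; inactive = fall in fluorescence gain under 50%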;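 note: plate controls were neutral control wells for no effect and wells lacking membranes for full effect; tested at 10 µM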
# Target sequence (Q03530 whole entry, looked up): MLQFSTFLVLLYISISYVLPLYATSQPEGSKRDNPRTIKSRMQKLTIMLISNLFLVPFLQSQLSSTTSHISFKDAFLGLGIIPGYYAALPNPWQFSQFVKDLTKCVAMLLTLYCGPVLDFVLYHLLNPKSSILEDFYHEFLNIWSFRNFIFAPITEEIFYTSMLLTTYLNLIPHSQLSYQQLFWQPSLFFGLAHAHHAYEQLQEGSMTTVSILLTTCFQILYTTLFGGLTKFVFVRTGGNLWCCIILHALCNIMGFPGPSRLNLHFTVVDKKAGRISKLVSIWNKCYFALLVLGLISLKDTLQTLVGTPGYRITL
# eIF4H FP inh retest: second read-out of eIF4H FP inh, no call of its own (marks repeat the call); inhibition, %; compound at 20 µM; confirmation average;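 mean of two retest wells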
# PABP FP inh retest: recorded beside PABP FP inh, whose call it bears; inhibition, %; compound at 20 µM; confirmation repeats;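 mean of two retest wells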
# MT1-MMP act inh RFP: recorded beside MT1-MMP act inh, whose call it bears; RFP signal change, %; measured here: RFP expression control read;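 0 = vehicle wells; hits needed this value within 50% of zero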
# Active calls of the source: *; i = inactive; ? = inconclusive; · = no result given; & = joins results of further samples. Hits appear at their usual frequency; about 2.9% have a hit in one of these screens.
SMILES,PABP FP inh,eIF4H FP inh,CSC inhib,MT1-MMP act inh,MT1-MMP act inh RFP,HIV Env fusion,Yeast UUG start,Rce1 inh,others
O=C(c1cc([N+](=O)[O-])ccc1Cl)N1c2ccccc2Sc2ccccc21,-8,1,22,-11,-19,·,-13,i,
Cc1cc(NC(=O)CCCN2C(=O)/C(=C/c3cccs3)SC2=S)no1,4,1,-13,-3,-2,25,-10,i,
O=C(COC(=O)Cn1nnc2ccccc21)Nc1ccccc1Br,-10,2,·,3,6,3,·,i,
O=C(NC1CCCC1)C1CC(c2ccc(F)cc2)=NO1 (stereo not given),2,-2,-13,9,2,-20,-1,i,
Nc1ccn([C@H]2C[C@H](O)[C@@H](CO)O2)c(=O)n1,7,-7,-2&3,0&4,7&6,-5,-17&13,i,
O=C1C(C=Nc2ccccc2O)=C(O)c2ccccc21,1,0,24,1,-2,·,-10,i,
COc1ccc(C(CC(=O)N2CCCC2)c2c(OC)cc(OC)c3c(-c4ccccc4)cc(=O)oc23)cc1 (stereo not given),28,87*,-15,-31,-27,7,-10,i,eIF4H FP inh retest=73*;PABP FP inh retest=39
Cc1cc(C)c(NC(=O)c2cccs2)c(C)c1NC(=O)c1cccs1,0,-3,-2,-2,-2,-7,-1,i,
Cc1ccc(SCC(=O)N2CCN(c3ccccn3)CC2)cc1,-2,-5,3,2,3,3,-18,i,
O=C(NC12CC3CC(CC(C3)C1)C2)c1ccc(N2CCNCC2)c([N+](=O)[O-])c1,-4,-8,48,1,1,30,·,i,
CCN(CCO)C(=S)Nc1cc(S(=O)(=O)N(C)C)ccc1C,-4,-12,-5,1,3,-4,·,i,
O=C(COCCOCC(=O)N(c1ccccn1)C1CCCCC1)N(c1ccccn1)C1CCCCC1,-4,12,-10,-3,4,·,11,i,
O=C(Nc1nnc(CCS(=O)(=O)c2ccc(Br)cc2)s1)c1ccc([N+](=O)[O-])cc1,5,-5,6,3,-5,-2,-25,·,
COc1cc(NC(=O)Cn2cnc3sc(C)c(S(=O)(=O)N4CCOCC4)c3c2=O)cc(OC)c1OC,-5,-4,·,2,2,12,-10,i,
Cc1cc(C)c(NC(=O)C2C3/C=C\CCCCC32)c(C)c1 (stereo not given),-13,-4,-21,-2,-6,79,4,·,
Cc1ccc(C(=O)C2CCOC(C)(C)C2)cc1 (stereo not given),-8,-14,0,-1,1,-12,·,i,
CCOc1ccccc1CN1CCN(Cc2ccon2)CC1CCO (stereo not given),-12,2,4,-4,2,-9,-20,i,
O=C1Nc2ccccc2C1(c1ccccc1)c1ccccc1,-11,-11,2,1,-10,-42,-7,i,
COc1ccc(CN2CCN(Cc3ccc(Br)cc3)CC2)c(OC)c1OC,-1,10,31,7,-6,-4,7,i,
O=C(NS(=O)(=O)N1CCCC1)C1=C(N2CCCC2)COC1=O,·,·,-7,1,5,12,-8,·,
CN(C)S(=O)(=O)Nc1ccc(Cc2ccncc2)cc1,·,·,·,1,4,-3,-22,·,
COc1ccccc1CN1CCCC(CN(CCN(C)C)C(=O)C2CCCC2)C1 (stereo not given),4,10,-3,6,5,-11,6,i,
CCc1cccc(NC(=O)COC(=O)C2COc3ccccc3O2)c1 (stereo not given),·,·,·,0,0,-33,-13,·,
COc1ccc(OC)c(NC(=O)c2cccc(N3C(=O)C4C5CCC(C5)C4C3=O)c2)c1 (stereo not given),8,-6,-2,13,-13,37,2,i,
Cc1coc2cc3oc(=O)c(CCC(=O)O)c(C)c3cc12,-11,2,-8,-6,-4,20,-13,i,
CSCCCNC(=S)N(C)CC(=O)Nc1ccc(C)cc1,21,8,·,0,3,-4,-8,i,
CC1=CC(C)(C)N(C(=O)CSc2nnc(N)s2)c2ccccc21,-1,-7,-13,4,2,2,-13,i,
COc1ccc(S(=O)(=O)N2CCCC(C(=O)Nc3ccc4c(c3)OCCO4)C2)cc1 (stereo not given),14,-3,8,-6,-8,·,-12,i,
COC(=O)c1sccc1-c1ccc(C(=O)Nc2cccnc2)o1,-2,-5,-4,4,4,-112,-12,i,
COc1ccc(N(CC(=O)NC2CCCC2)C(=O)CCC(=O)Nc2cc(C)on2)cc1,-3,-10,·,-2,0,6,-16,i,
Cc1nn(CCOc2ccccc2)c(=O)n1-c1ccc(Cl)cc1,-4,-3,-12,4,0,1,8,i,
O=C(O)c1cccc(S(=O)(=O)N2CCCC(c3nc4c(nnn4Cc4ccc(F)cc4)c(=O)[nH]3)C2)c1 (stereo not given),18,-7,1,2,-4,5,-4,i,
O=C(Oc1ccc(=O)n(-c2ccccc2)n1)c1ccccc1,2,-12,-6,0,4,·,0,i,
O=C1CCC/C1=C/Nc1ccc2c(c1)OCO2,6,19,-15,-10,6,-150,-7,i,
O=C(CCc1nc(-c2ccccc2Cl)no1)NCCc1ccccc1,10,3,-6,0,-3,-1,-8,i,
CC(=O)N1CCSc2ccc(S(=O)(=O)Nc3ccc(C)cc3)cc21,0,-7,13,2,-4,5,-3,i,
O=C1NC(=S)N/C1=C/c1ccc2c(c1)OCO2,72*,56,18,-13,-3,-7,-7,i,eIF4H FP inh retest=1;PABP FP inh retest=53*
Cc1ccc(NC(=O)C2C3/C=C\CCCCC32)cc1 (stereo not given),1,-9,-3,2,2,-10,-23,i,
Cc1sc2ncn(/N=C/c3ccco3)c(=O)c2c1C,4,3,-6,-5,-2,-15,-16,i,
Cc1ccccc1OCCCCCn1ccnc1,9,-3,41,10,0,-20,-14,i,
CCOc1ccc(N2CC(C(=O)NC3CCCCCC3)CC2=O)cc1 (stereo not given),13,-10,1,1,5,1,-7,i,
CCn1cc(C(=O)O)c(=O)c2cc(S(=O)(=O)N3CCCCCC3)ccc21,2,-3,-6,-1,2,-9,-9,i,
COc1ccc(NC(=O)N2CCCC2C(=O)NCc2ccc(F)cc2)cc1 (stereo not given),-5,-4,-4,-1,5,-20,-10,·,
CC1CCC2(CC1)SCC(=O)N2c1ccc(F)cc1 (stereo not given),2,-8,0,4,3,-4,·,i,
CCCCc1nc2cc(C(=O)N(C)CCc3cn[nH]c3)ccc2o1,-8,-12,2,3,-1,-15,-24,i,
COc1cccc(NS(=O)(=O)c2ccc3c(c2)N(C(C)=O)CCO3)c1,0,-10,-8,0,-9,-2,-10,i,
COc1cc2[nH]c(=S)n(Cc3ccc(C)o3)c(=O)c2cc1OC,10,-9,10,6,2,-55,-20,i,
NS(=O)(=O)c1cccc(NC(=O)COC(=O)c2ccccc2C(=O)c2ccccc2)c1,·,·,-15,3,-3,·,-3,·,
Cc1c(Cl)cccc1NC(=S)Nn1cnnc1,-4,-7,·,3,2,1,·,i,
CC[C@@H]1CC2=C(C(=O)OC(C)(C)O2)[C@H](c2ccc(F)cc2)O1,·,·,·,4,3,7,-9,·,
# (next part)
SMILES,PABP FP inh,eIF4H FP inh,CSC inhib,MT1-MMP act inh,MT1-MMP act inh RFP,HIV Env fusion,Yeast UUG start,Rce1 inh,others
CCCCCc1ccc(-c2ccc(/C=C/C(=O)O)cc2)nc1,-2,3,9,6,7,1,-30,i,
CC1=C(C(=O)OCCC#N)C(c2cc3c(cc2Br)OCO3)NC(=O)N1 (stereo not given),4,-4,·,5,9,18,-11,i,
Cc1cccc2c(=O)c(-c3ccc4c(c3)OCO4)c(NC(=O)c3ccco3)oc12,2,0,2,-1,3,4,0,i,
O=C(CSc1nc2ccc(Nc3nc(N4CCOCC4)nc(N4CCOCC4)n3)cc2s1)N1CCOCC1,-4,6,2,5,3,19,·,i,
Cc1cc(C)nc(NC(=NCCc2c[nH]c3ccccc23)NC(=O)Nc2ccccc2)n1,-5,-6,42,0,-6,-7,-3,i,
COC(=O)c1[nH]c2ccc(C)cc2c1NC(=O)CN1CCN(c2ccccc2)CC1,0,-2,3,2,-13,?,·,i,
COc1ccc(Cl)cc1N(CC(=O)Nc1ccccc1C(=O)NCc1ccco1)S(C)(=O)=O,5,-4,17,0,-3,·,-11,i,
O=C(NCCO)c1cc(-c2cc(C(=O)NCCO)c3ccccc3n2)nc2ccccc12,-6,-6,-4,1,5,9,-15,i,
CC(C)[C@H](NC(=O)c1ccccc1)C(=O)OCC(=O)/C=C1/N(C)c2ccccc2C1(C)C,0,-4,-3,5,-10,9,·,i,
COc1cccc(-c2nc(CS(=O)CC(=O)NCc3ccccc3Cl)c(C)o2)c1 (stereo not given),0,-8,7,4,1,-64,-18,i,
COc1ccccc1-c1csc(C(NC(C)=O)c2ccc(F)c(F)c2)n1 (stereo not given),·,·,·,-2,0,8,-28,·,
Clc1ccc(Cc2nn3c(Cn4nnc5ccccc54)nnc3s2)cc1,11,5,-11,1,-9,19,-6,i,
COCc1cc(C)nc(N/N=C/c2ccc(-c3cc(C(=O)O)ccc3Cl)o2)c1C#N,10,18,·,·,·,15,·,i,
Cc1cccnc1CN1CCN(Cc2nc(Cc3cccc(F)c3)no2)CC1,-6,0,8,0,0,-2,·,i,
NC(=S)NN=C1CCC(C2CCCCC2)CC1 (stereo not given),·,·,·,-5,-7,8,-25,·,
CCOc1ccccc1N(CC(=O)NCCSc1ccccc1)S(C)(=O)=O,3,-3,-8,2,8,-1,·,i,
O=C1CCCN=C(Nc2ccc(F)c(Cl)c2)S1,19,5,-8,5,2,8,·,i,
C/C(=N/NC(=O)c1ccc2c(c1)OCO2)c1ccc(Br)s1,8,-2,-4,3,3,-11,·,i,
Cc1ccc(S(=O)(=O)N2CCN(C(=O)COC(=O)c3ccc(Br)o3)CC2)c(C)c1,·,·,-11,-4,-4,·,-7,i,
COCCCN1C(=O)/C(=C\c2ccc3c(c2)OCO3)C(C(=O)OC)=C1C,22,16,·,-2,-4,-3,·,i,

# Quoted from the entries so far (two entries):
SMILES,PABP FP inh,eIF4H FP inh,CSC inhib,MT1-MMP act inh,MT1-MMP act inh RFP,HIV Env fusion,Yeast UUG start,Rce1 inh,others
CN(C)S(=O)(=O)Nc1ccc(Cc2ccncc2)cc1,·,·,·,1,4,-3,-22,·,
COc1ccccc1CN1CCCC(CN(CCN(C)C)C(=O)C2CCCC2)C1 (stereo not given),4,10,-3,6,5,-11,6,i,

# Later entries
SMILES,PABP FP inh,eIF4H FP inh,CSC inhib,MT1-MMP act inh,MT1-MMP act inh RFP,HIV Env fusion,Yeast UUG start,Rce1 inh,others
COc1cc(C(=O)Nc2cc(S(C)(=O)=O)ccc2Cl)ccc1OCC(=O)N1CCOCC1,·,·,-4,0,4,·,-6,·,
CN(CCc1ccccc1)C(C(=O)Nc1ccc2c(c1)OCCO2)C1CC1 (stereo not given),·,·,·,3,0,5,-13,·,
COc1ccc(C2(C)NC(=O)N(CC(=O)Nc3ccc(-c4nc5ccc(C)cc5s4)cc3)C2=O)cc1 (stereo not given),-2,-8,-25,2,-3,-47,-4,i,
Cc1cc(O)cc(O[C@H]2OC(CO)[C@H](O)[C@@H](O)[C@H]2O)c1 (stereo not given in full),9,-1,15,1,4,-9,-15,i,
O=C(Nc1nnc(C2CC2)s1)c1cncc(Br)c1,·,·,-1,9,-2,-38,-13,·,
